# Arbovirus anti = blocks arbovirus infection; inhibition, % at 10 µM; hit rate 0.37% among 200,000; arbovirus infection cell-based antiviral screen; AID 1251;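 active = inhibition from about 30%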;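 note: bluetongue infection of BSR cells; cell survival read as ATP light after 72 h; 0% = infected wells without compound and 100% = uninfected wells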
# YopH PTP inh = inhibitors of Yersinia enterocolitica YopH tyrosine phosphatase; hit rate 0.16% among 140,000; inhibition, %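 (about 10 µM by stock and volumes)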; fluorescence Ex485/Em525;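 active = inhibition of 50% or more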;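 note: controls were vehicle for no effect and minimum signal wells for full effect; inactives centre near -20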
# Mtb betalactam = beta-lactam sensitization of Mtb H37Rv | M. tuberculosis H37Rv growth with meropenem, percent inhibition; hits of this screen are not shown here | inhibition, % at 25 µM | hit rate 0.27% among 330,000;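 active = about 74% or more and at least 40 points above the plate without the antibiotic, then above 30% in a dose series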;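 note: growth measured after seven days incubation then overnight dye step; 0% = bacteria only wells and 100% = bacteria with antibiotic; twin plates without the antibiotic show which effects depend on it; some results filed as inactive read as strong as hits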
# RecA splice inh = Mtb RecA intein splicing inhibition; hit rate 0.75% among 290,000; cell-free RecA intein splicing, fluorescence; P9WHJ3; inhibition, %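 (about 9 µM by stock and volumes)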; in the data active = inhibition above about 30%;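 note: 0% = vehicle wells and 100% = reference inhibitor control wells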
# Target sequence (P9WHJ3 whole entry, looked up, canonical isoform): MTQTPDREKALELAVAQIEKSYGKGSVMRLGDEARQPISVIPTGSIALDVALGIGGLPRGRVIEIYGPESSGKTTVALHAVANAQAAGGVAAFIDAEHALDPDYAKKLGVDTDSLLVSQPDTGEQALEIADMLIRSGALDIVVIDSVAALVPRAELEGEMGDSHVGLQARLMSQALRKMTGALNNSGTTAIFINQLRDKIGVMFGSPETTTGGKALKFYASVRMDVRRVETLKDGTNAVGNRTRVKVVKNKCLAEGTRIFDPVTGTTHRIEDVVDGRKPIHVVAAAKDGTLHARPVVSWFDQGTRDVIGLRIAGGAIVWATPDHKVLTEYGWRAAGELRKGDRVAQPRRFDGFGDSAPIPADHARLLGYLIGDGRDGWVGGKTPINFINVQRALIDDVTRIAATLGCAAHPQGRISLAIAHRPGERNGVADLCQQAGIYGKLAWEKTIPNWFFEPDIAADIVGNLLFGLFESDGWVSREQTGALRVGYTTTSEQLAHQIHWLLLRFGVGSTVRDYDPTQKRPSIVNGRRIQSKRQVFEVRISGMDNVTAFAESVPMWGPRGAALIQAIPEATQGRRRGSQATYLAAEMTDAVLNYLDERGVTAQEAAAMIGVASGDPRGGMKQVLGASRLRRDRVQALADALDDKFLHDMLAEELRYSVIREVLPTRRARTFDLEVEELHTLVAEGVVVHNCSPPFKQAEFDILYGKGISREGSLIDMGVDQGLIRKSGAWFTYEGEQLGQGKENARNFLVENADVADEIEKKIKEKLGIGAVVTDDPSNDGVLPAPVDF
# Mtb H37Rv = M. tuberculosis H37Rv growth inhibitors, H37Rv strain (AID 1626). hit rate 0.95% among 220,000. one-dose inhibition, % at 10 µM; IC50 in µM for titrated hits. M. tuberculosis H37Rv growth inhibition; higher % means a stronger effect;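 active = confirmed in a dose series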;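 note: bacteria incubated seven days before Alamar blue readout; 0% = bacteria only wells and 100% = bacteria with antibiotic wells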
# Arbovirus anti repeat = second read-out of Arbovirus anti, no call of its own (marks repeat the call); inhibition, %; measured here: 10K subset replicate screen; many hits read low in the repeat;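 first of two repeat runs on a subset; 0% = infected and 100% = uninfected wells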
# * = called active by the depositor; nt = not tested or not shown. The list is partial; count on the stated rates, not on these rows.
SMILES,Arbovirus anti,YopH PTP inh,Mtb betalactam,RecA splice inh,Mtb H37Rv,others
CCS(=O)(=O)N1CCC(C(=O)NCCc2ccccc2)CC1,6,-28,-1,-1.3,2%,
CCOc1cc(S(=O)(=O)N2CCC(c3nc4ccccc4s3)CC2)c(OCC)cc1S(=O)(=O)N1CCCCC1,-8,-12,3,1.8,13%,
CCC(=O)N1N=C(c2ccc(NS(C)(=O)=O)cc2)CC1c1ccc(C)cc1 (stereo unspecified),2,-1,1,-1.0,1%,
Cc1ccc(NC(=O)Cn2cc(S(=O)(=O)c3ccc(C)cc3)c(=O)c3cc(F)ccc32)cc1,-5,-35,-1,-0.5,nt,
Cc1ccc(CSCCNC(=O)CN(c2ccccc2)S(C)(=O)=O)cc1,1,nt,-6,3.1,3%,
Nc1ccc(C(=O)N/N=C/c2c[nH]c3ccccc23)cc1,nt,nt,2,0.3,nt,
CC(C)Cn1c2c(c(=O)[nH]c1=O)C(C(F)(F)F)(C(F)(F)F)N=C(CCC1CCCCC1)N2,7,-11,11,-0.5,-1%,
Cc1nn(-c2ccc(Cl)c(Cl)c2Cl)c(=O)c2ccccc12,4,-16,5,9.4,10%,
CC(=O)N1N=C2c3ccccc3CCC2C1c1ccc(F)cc1 (stereo unspecified),nt,nt,-13,3.2,3%,
COc1ccc(CC(=O)Nc2cc(C)ccn2)cc1,-3,4,-11,-0.3,6%,
CC(=O)CCCC(NS(=O)(=O)CCC(Cl)(Cl)Cl)c1ccccc1 (stereo unspecified),nt,nt,-9,1.7,nt,
CCC12CN3CCN(CC(C3)/C1=N\NC(=O)c1ccc(C(C)(C)C)cc1)C2,-2,-16,0,3.0,1%,
CCOC(=O)N1CCN(C(=O)c2ccc(Cl)c(S(=O)(=O)Nc3ccccc3)c2)CC1,9,-11,-11,2.2,-1%,
CCCc1nnc(SCC(=O)N2CCCC(C)C2)n1CCCOC (stereo unspecified),-2,9,-1,-0.8,-11%,
O=C(c1ccc(-n2cncn2)c([N+](=O)[O-])c1)N1CCN(S(=O)(=O)c2c(F)cccc2F)CC1,nt,nt,0,-3.6,nt,
O=C(Nc1ccc2c(c1)OCCO2)C1CCCN1C(=O)Nc1ccccc1 (stereo unspecified),nt,nt,1,-0.2,nt,
CC(C)N(Cc1cc2ccccc2[nH]c1=O)C(=O)c1cccc([N+](=O)[O-])c1,nt,nt,-5,0.7,0%,
Cc1sc2nc(CN(C(=O)NC3CCCCC3)C3CCCC3)[nH]c(=O)c2c1C,-14,1,40,-3.2,6.1µM*,
CCOC(=O)C1CCN(C(=O)c2cc3cc4cc(OC)ccc4nc3o2)CC1,-1,-3,-8,0.2,65%,
CCOC(=O)Cn1c(=O)oc2cc(S(=O)(=O)NCCC(C)C)ccc21,-2,0,-1,0.6,-1%,
O=C(NCCN1CCCC1)C1CC(=O)N(C2CCCCC2)C1 (stereo unspecified),2,-22,-20,-2.1,-11%,
COc1nn(CC(=O)N2N=C(C)CC2(O)C(F)(F)F)cc1[N+](=O)[O-] (stereo unspecified),7,-9,0,-0.9,-3%,
C=C1c2ccccc2S(=O)(=O)N(Cc2ccccc2)C1COCc1ccccc1 (stereo unspecified),nt,nt,-10,-0.3,-8%,
COc1cc2c(cc1NC(=O)C(C)Sc1cccc[n+]1[O-])oc1ccccc12 (stereo unspecified),14,-22,6,1.1,12%,
CCCn1nnc(NC(=O)c2sc3ccccc3c2Cl)n1,-2,5,66,4.8,2%,

# Compounds above containing a CF3 group (two):
SMILES,Arbovirus anti,YopH PTP inh,Mtb betalactam,RecA splice inh,Mtb H37Rv,others
CC(C)Cn1c2c(c(=O)[nH]c1=O)C(C(F)(F)F)(C(F)(F)F)N=C(CCC1CCCCC1)N2,7,-11,11,-0.5,-1%,
COc1nn(CC(=O)N2N=C(C)CC2(O)C(F)(F)F)cc1[N+](=O)[O-] (stereo unspecified),7,-9,0,-0.9,-3%,

# (cont.)
SMILES,Arbovirus anti,YopH PTP inh,Mtb betalactam,RecA splice inh,Mtb H37Rv,others
CCC1(C(=O)OC)NC(c2cccc(F)c2)C2C(=O)N(C)C(=O)C21 (stereo unspecified),6,5,-5,-3.0,-6%,
COCCNC(=O)CN(C(=O)Cn1nnc2ccccc21)c1ccc(C)c(F)c1,-1,-6,3,2.8,-17%,
O=C(Nc1cccc(-c2nn[nH]n2)c1)c1ccc(Cl)s1,nt,nt,1,1.2,nt,
CCCCn1c(N)c(N(CCOC)C(=O)COC(=O)COc2cccc(C(C)=O)c2)c(=O)[nH]c1=O,nt,nt,-2,-1.5,nt,
Cc1ccc(C(=O)Nc2ccc(N3CCOCC3)c3nonc23)cc1[N+](=O)[O-],nt,nt,-2,6.9,nt,
CCOC(=O)c1c(C)oc2c1c(C=NC1CCS(=O)(=O)C1)c(O)c1ccccc12 (stereo unspecified),-9,7,1,1.2,nt,
Cc1cc(C(=O)OCC(=O)Nc2c(F)cccc2F)c(C)n1-c1ccccc1,1,nt,-16,5.2,5%,
COc1ccccc1/C=C\C(=O)NCC(=O)N/N=C(/C)c1cccc([N+](=O)[O-])c1,nt,nt,16,2.3,nt,
CN(C)S(=O)(=O)Nc1cccc(NC(=O)CC23CC4CC(CC(C4)C2)C3)c1,nt,nt,8,-0.6,nt,
CCc1ccccc1OCc1nnc(N)s1,3,3,-9,-2.3,6%,
COc1ccccc1-n1c(SCC(=O)N(C)C2CCS(=O)(=O)C2)nc2ccccc2c1=O (stereo unspecified),2,-20,1,0.4,-9%,
O=C(NCCCn1ccnc1)/C(=C/c1cccnc1)NC(=O)c1ccco1,nt,nt,-6,-0.4,-2%,
Cc1ccc(CC(=O)NCC(C)C)cc1,4,14,-12,-0.5,-8%,
CC(C)c1ccccc1OCCCCCNCCO,-2,-34,4,3.3,0%,
Cc1cc(C(=O)NCc2cc(F)cc3c2OCOC3)nn1C,nt,nt,-1,0.1,-9%,
O=C(NCc1ccco1)c1ccc2c(=O)n(-c3ccccc3)c(=S)[nH]c2c1,-17,-22,-2,-1.4,-3%,
O=C(O)CCNC(=O)/C(=C/C=C/c1ccccc1)NC(=O)c1ccccc1,2,nt,-5,-1.3,0%,
Cc1cc(N)n(-c2ccccn2)n1,nt,nt,-2,nt,-12%,
Cc1cccc(C(=O)NCc2nnc(SCC(=O)NC3CCCC3)n2C)c1,nt,nt,3,-1.6,nt,
CCCC(=O)Nc1ccc(C#Cc2ccccc2)cc1,-7,-43,39,0.6,5%,
Cc1ccc(S(=O)(=O)N2C(=O)CCC2C(=O)N2CCCCC2)cc1 (stereo unspecified),nt,nt,-10,-1.4,nt,
CCCSc1nc2cc(C)c(C)cc2n1CC(C)O (stereo unspecified),4,nt,0,-1.7,3%,
CCOC(=O)Cc1cc(=O)[nH]c(/N=C(\N)Nc2ccc(C)c(C)c2)n1,4,nt,1,-3.3,-5%,
CCn1c(SCC(=O)Nc2cccc(C)c2)nc2nc3c(cc2c1=O)COC(C)(C)C3,nt,nt,4,-1.3,6%,
COc1ccc(NS(=O)(=O)c2ccc(N3CCOCC3)c(NC(=O)c3ccccc3Cl)c2)cc1,-16,-20,6,1.9,-3%,

# Going on with the list:
SMILES,Arbovirus anti,YopH PTP inh,Mtb betalactam,RecA splice inh,Mtb H37Rv,others
C/C(=N\Nc1cccc2cccnc12)c1ccccc1O,3,nt,1,2.2,9%,
O=C(/C=C/c1ccc(O)cc1)c1c(O)cc(O)cc1O,nt,nt,-11,0.4,0%,
CCNC(=S)Nc1sc2c(c1C#N)CCC(C)C2 (stereo unspecified),nt,nt,7,-0.4,9%,
COc1ccc(C2c3c(-c4ccccc4)n[nH]c3C(=O)N2c2ccc(C(=O)O)cc2)cc1 (stereo unspecified),nt,nt,-8,0.9,6%,
COc1cc(CNS(=O)(=O)c2ccc3c(c2)CC(C)N3C(=O)C2CCC2)cc(OC)c1OC (stereo unspecified),nt,nt,-4,-0.7,nt,
Cc1[nH]c2ccc(C(=O)NCCN3CCCCCC3)cc2c1C,nt,nt,4,1.0,nt,
CCCC(O)(CCN1CCOCC1)c1ccc(Cl)cc1 (stereo unspecified),nt,nt,-7,-0.2,3%,
CN(C)S(=O)(=O)N1CCN(S(=O)(=O)c2ccccc2)CC1,6,-32,8,nt,-6%,
CC[C@@]12C(=O)N(c3cccc(Br)c3)C(=O)N1[C@H](c1ccc(Cl)cc1)[C@@H]1C(=O)N(C3CCCCC3)C(=O)[C@@H]12,nt,nt,-1,0.3,nt,
COC(=O)c1ccc(NC(=O)C2C3C=CC(O3)C2C(=O)O)cc1 (stereo unspecified),14,20,-11,-2.8,-12%,
Cc1cc(N2C(=O)CCC2=O)n(-c2ccccc2)n1,1,-14,0,2.6,-7%,
Cc1cc(NC(=O)c2ccccc2)n(-c2ccccc2)n1,1,nt,-4,-2.6,-5%,
Nc1nc(NC(=O)c2cccs2)nn1-c1ccccc1,8,-14,-6,0.4,3%,
C=CCOC(=O)C1=C[C@H](c2csc3ccccc23)C[C@H](OCCCCO)O1,nt,nt,0,2.3,0%,
O=[N+]([O-])c1ccc(N2CCNCC2)cc1NCc1ccco1,-22,-22,1,-2.3,7%,
Cc1cccc(NC(=O)CCCCCN2C(=O)c3ccccc3C2=O)n1,-3,27,-20,-1.0,-6%,
O=P(C(c1c[nH]c2ccccc12)N1CCOCC1)(N1CCOCC1)N1CCOCC1 (stereo unspecified),7,-37,-8,-3.2,6%,
Cc1ccc(S(=O)(=O)N2CCN=C2SCc2ccccc2)cc1,-1,nt,7,3.6,nt,
CCOc1cc(/C=N/NC(=O)CCCC(=O)NC2CCCCC2)ccc1O,0,-25,3,-4.4,-7%,
O=C(Nc1c2c(nn1-c1ccc([N+](=O)[O-])cc1)CS(=O)(=O)C2)c1ccccc1F,nt,nt,-2,-1.2,nt,
COc1ccc(C(=O)N/N=C/c2ccccc2C(=O)O)cc1OC,nt,nt,1,-1.4,-13%,
Cc1ccc(NC2SC(=O)N(Cc3cccc(C(=O)O)c3)C2=O)c(C)c1 (stereo unspecified),nt,nt,-5,-1.5,-12%,
COc1cccc(/C(C)=N/NC(=O)Cc2c(C)[nH][nH]c2=O)c1,4,nt,-11,9.1,-3%,
COc1cccc(-c2nnn(CC(=O)Nc3cc(OC)c(NC(=O)c4ccco4)cc3OC)n2)c1,5,8,nt,0.9,2%,
CC/C(=N\NC(=O)c1nnn(-c2nonc2N)c1-c1cccs1)c1ccccc1,nt,nt,4,-1.2,nt,

# 3 compounds from above, arranged by count of non-hydrogen atoms, rising:
SMILES,Arbovirus anti,YopH PTP inh,Mtb betalactam,RecA splice inh,Mtb H37Rv,others
COc1ccc(CC(=O)Nc2cc(C)ccn2)cc1,-3,4,-11,-0.3,6%,
Cc1ccc(NC2SC(=O)N(Cc3cccc(C(=O)O)c3)C2=O)c(C)c1 (stereo unspecified),nt,nt,-5,-1.5,-12%,
Cc1ccc(C(=O)Nc2ccc(N3CCOCC3)c3nonc23)cc1[N+](=O)[O-],nt,nt,-2,6.9,nt,

# Additional results
SMILES,Arbovirus anti,YopH PTP inh,Mtb betalactam,RecA splice inh,Mtb H37Rv,others
COc1ccc(OC)c(Nc2ccc(C(=O)O)cc2[N+](=O)[O-])c1,1,-11,-5,-0.5,3%,
O=S(=O)(c1ccccc1)N1N=C(c2cccs2)CC1c1ccc(F)cc1 (stereo unspecified),-12,0,0,9.9,-3%,
C/C(=N/NC(=O)c1ccoc1C)c1cccc(NC(=O)C(F)(F)F)c1,-7,-24,3,-2.5,-4%,
CC(C)(C)Cc1nc(-c2ccc(Cl)cc2)no1,5,-5,1,-0.9,7%,
COC(=O)C(CCSC)NC(=O)Cn1ncc2c(=O)oc3ccc(C)cc3c21 (stereo unspecified),3,-20,0,2.0,23%,Arbovirus anti repeat=6
COc1cc(/C=C(/C#N)C(=O)Nc2ccc(Cl)cc2)ccc1Oc1nc(Cl)ncc1F,nt,nt,10,-7.0,-2%,
COC(=O)N1[C@H](Cc2ccccc2)C=C[C@]1(C)C(=O)NCc1ccccn1,4,-16,-2,-2.0,-10%,
O=C(O)CN1C(=O)CN=C(c2ccccn2)c2cc(Cl)ccc21,nt,nt,7,0.6,-5%,
Cc1ccc(CN2CC(C(=O)Nc3cc(C)ccn3)CC2=O)cc1 (stereo unspecified),nt,nt,-7,-1.6,nt,
COc1ccccc1N1CCN(C(=O)c2cc(=O)c3cc(C)ccc3o2)CC1,nt,nt,1,0.6,nt,
CCCN(CCC)C(=O)CSc1nc2ccsc2c(=O)n1NC(=O)c1ccccc1,4,-11,-21,-0.1,3%,
CCCCOc1ccc(C(=O)NCC2(c3ccccc3)CCOCC2)cc1,4,-16,2,4.2,0%,
Cc1ccccc1NS(=O)(=O)c1ccc(NC(=O)c2ccco2)cc1,9,-13,3,0.8,2%,
COc1cc2[nH]c(=O)n(Cc3ccc(C(=O)N4CCC(N5CCCCC5)CC4)cc3)c(=O)c2cc1OC,nt,nt,0,-6.6,nt,
COc1ccc(NC(=O)CSc2nc(=O)n(CCN3CCOCC3)c3c2CCCC3)c(OC)c1,nt,nt,-12,0.0,nt,
CC(C)CC(=O)Nc1nnc(S(=O)(=O)N2c3ccccc3CC2C)s1 (stereo unspecified),nt,nt,2,-3.1,nt,

# Bioassay records as filed in PubChem BioAssay.
